ALR inh: inhibitors of human ALR sulfhydryl oxidase, primary screen, biochemical, H2O2 detection, HRP-luminol luminescence, single point; purified ALR, DTT oxidation; inhibition, % (no concentration beside the values); hit rate 3.8% among 290,000;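 active = mean and each replicate at 75% or more; inconclusive = only one of the two met; inactive = neither met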;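 note: stock transfer was 7.5 nL into about 7.5 µL; 0% = neutral wells and 100% = wells with inactivated enzyme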
Target sequence (P55789 whole entry, looked up): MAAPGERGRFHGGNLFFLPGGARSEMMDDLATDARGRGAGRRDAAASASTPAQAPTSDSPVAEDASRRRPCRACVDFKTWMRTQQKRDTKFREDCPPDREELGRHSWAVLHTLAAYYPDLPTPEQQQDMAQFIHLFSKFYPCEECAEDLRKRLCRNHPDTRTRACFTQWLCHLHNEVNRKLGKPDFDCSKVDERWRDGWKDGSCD
T cruzi inh: inhibitors of intracellular T. cruzi growth, primary screen, luminescence, NIH3T3 host cells | T. cruzi beta-gal in NIH3T3, 90 h | inhibition, % (no concentration beside the values) | hit rate 1.4% among 300,000;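 active = mean inhibition across valid replicates above about 55%, limit read from the data; inconclusive = mean below that limit but half or more replicates reach it; inactive = mean below it, under half of replicates reach it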;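 note: signal also drops with host cell toxicity which is not excluded here; 0% = plate median of DMSO wells and 100% = zero luminescence signal; higher percent means less beta-gal luminescence so fewer parasites; stock transfer was 50 nL into about 50 µL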
Ecoli rRNA inh: reduced GFP signal of wild-type E. coli, primary screen, bacterial rRNA inhibitor project, GFP/RFP fluorescence, OD600, single point | GFP signal change (wild-type ribosome), % (test concentration not listed) | E. coli WT GFP vs humanized-ribosome RFP mutants, 24 h; stronger effect = lower value; DMSO median 0, no signal -100 | hit rate 1.6% among 350,000 | AID 720706, 2013;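 active = significant combined selectivity score with lowered wild-type GFP, culture density cut under 30%, mutant RFP and density less affected; inactive = any of these conditions unmet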; note: one replicate is shown; some compounds called inactive have numbers as strong as hits
FGF22 binding: binders of human FGF22 protein, primary screen, FGF22 synaptogenesis inhibitor project, biophysical, thermal shift, single point | Fibroblast growth factor 22 (Homo sapiens), Q9HCT0 | recombinant FGF22 thermal shift, SYPRO orange fluorescence; percent of sucrose octasulfate shift, DMSO zero | calls only at 9.99 µM | hit rate 1.5% among 340,000 | AID 651658, 2012;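 active = melting point raised past a set limit in the mean and every replicate; inconclusive = no clear call; three in four hits are not shown here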
Target sequence (Q9HCT0 whole entry, looked up): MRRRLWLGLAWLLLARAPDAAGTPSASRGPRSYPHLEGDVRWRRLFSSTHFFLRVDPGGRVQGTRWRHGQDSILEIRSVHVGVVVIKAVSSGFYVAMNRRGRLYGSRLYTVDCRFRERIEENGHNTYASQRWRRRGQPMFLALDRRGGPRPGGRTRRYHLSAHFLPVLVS
Calb FLC: C. albicans growth inhibition with fluconazole, primary screen, CaCi-2 strain, Alamar Blue fluorescence; C. albicans CaCi-2 (fluconazole-resistant clinical isolate) + fluconazole, 48 h; hit rate 0.57% among 300,000; AID 1979, 2009; growth inhibition, % (no concentration beside the values);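 active = most replicates above 75%; inconclusive = exactly half above 75%; inactive = most below 75%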;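 note: all wells also contain fluconazole at 8 µg/ml as a sub-toxic cotreatment; 0% = median of DMSO wells and 100% = median of geldanamycin control wells; wells of about 8 µL received 7.5 nL stock; the first replicate is given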
Beta apoptosis: inhibitors of cytokine-induced beta cell apoptosis, primary screen, luminescence. INS-1E cytokine-induced death, ATP luminescence, 48 h; percent of positive-control rescue, neutral wells zero. protection from apoptosis, % (concentration not given with the values). hit rate 0.8% among 300,000. AID 435005, 2010;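 active = all replicates at 75% or more, or half of them and the mean; inconclusive = half reach 75% but not the mean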;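 note: 0% = cytokine-treated negative control wells and 100% = positive control rescue; higher means more ATP so stronger rescue from cytokine killing; wells of about 40 µL received 100 nL stock; the first replicate is given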
RanGTP-Imp inh: inhibitors of RanGTP-importin-beta interaction, primary screen, biochemical, FRET, CFP-Ran, YFP-importin-beta, homogeneous. Ran GTPase (GTP-bound) - importin-beta complex. cell-free CFP-Ran/YFP-importin-beta FRET ratio. inhibition, % (test concentration not listed). hit rate 1.1% among 300,000. AID 2216, 2009;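 active = most replicates above 15%; inconclusive = exactly half above 15%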;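 note: 0% = DMSO wells and 100% = Ran loaded with GDP instead of GTP; wells of about 40 µL received 100 nL stock; the first replicate is given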
MLL AF4-AF9 inh: inhibitors of AF4 peptide binding to AF9, primary screen, biochemical, AlphaScreen, biotin-AF4 peptide, FLAG-AF9, single point. Protein AF-9 (Homo sapiens), P42568. inhibition, % at 10 µM. hit rate 0.47% among 350,000;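 active = every replicate reaching a set inhibition limit, whatever the replicate mean, cut at about 25% in these data; inconclusive = mean inhibition reaches that limit but some replicates miss it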;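 note: 0% = plate neutral control median and 100% = total signal loss; the record names both 10 and 1 µM as test concentration; the first replicate is given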
Target sequence (P42568 whole entry, looked up): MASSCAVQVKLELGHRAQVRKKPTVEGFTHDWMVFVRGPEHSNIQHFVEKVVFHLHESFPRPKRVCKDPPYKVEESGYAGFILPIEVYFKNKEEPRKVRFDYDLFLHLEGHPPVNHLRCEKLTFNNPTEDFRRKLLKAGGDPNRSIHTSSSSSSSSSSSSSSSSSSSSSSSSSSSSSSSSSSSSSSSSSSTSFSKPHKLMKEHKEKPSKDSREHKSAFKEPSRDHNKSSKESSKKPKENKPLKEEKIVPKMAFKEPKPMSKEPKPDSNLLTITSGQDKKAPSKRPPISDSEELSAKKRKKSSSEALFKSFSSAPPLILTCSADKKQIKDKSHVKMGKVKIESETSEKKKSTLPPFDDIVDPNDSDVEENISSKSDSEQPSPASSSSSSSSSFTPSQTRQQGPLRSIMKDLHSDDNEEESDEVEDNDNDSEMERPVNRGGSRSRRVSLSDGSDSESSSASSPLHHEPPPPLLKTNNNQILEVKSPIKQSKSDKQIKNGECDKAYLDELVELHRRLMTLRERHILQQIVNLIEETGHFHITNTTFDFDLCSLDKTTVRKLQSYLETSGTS
Ecoli rRNA inh OD600: recorded beside Ecoli rRNA inh, whose call it bears; OD600 change, %; measured here: OD600 growth;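 optical density of the mix in the first replicate; 0 = DMSO median and -100 = no signal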
Ecoli rRNA inh RFP: second read-out of Ecoli rRNA inh, no call of its own (marks repeat the call); RFP signal change, %; measured here: RFP humanized mutant strains;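 first replicate; 0 = DMSO median and -100 = no signal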
Active calls of the source: *; i = inactive; ? = inconclusive; . = not tested or not shown; + = active, no number. Some of the compounds tested, so the mix of outcomes need not match the whole.

SMILES | ALR inh | T cruzi inh | Ecoli rRNA inh | Ecoli rRNA inh OD600 | Ecoli rRNA inh RFP | FGF22 binding | Calb FLC | Beta apoptosis | RanGTP-Imp inh | MLL AF4-AF9 inh
COc1ccccc1N(C)S(=O)(=O)c1ccc(Cl)c(C(=O)NCC2(N(C)C)CCCCC2)c1 | -3 | -2 | 0 | 0 | -2.5 | i | -8 | -1 | -1.2 | -8.7
CC(=O)N1CCOc2ccc(S(=O)(=O)Nc3ccc(Cl)cn3)cc21 | -2 | 10 | 12 | 5 | -2.1 | i | -2 | -6 | 0.9 | -2.0
CCn1cc(Br)c(C(=O)Nc2ccc(F)cc2F)n1 | -14 | -7 | 2 | 5 | 1.9 | i | 4 | -3 | -5.8 | 4.9
O=C(NNC(=S)Nc1ccc(Br)cc1)c1ccccc1Br | 99* | -17 | -58 | -74 | -19 | i | 65 | 17 | -1.3 | 1.0
CN(C(=O)COC(=O)COc1ccc(Cl)cc1Cl)c1c(N)n(Cc2ccccc2)c(=O)[nH]c1=O | 2 | -1 | 3 | 8 | -0.7 | i | 4 | -3 | -1.7 | -4.2
O=C(CSc1nc2ccc(Nc3nc(N4CCCC4)nc(N4CCCC4)n3)cc2s1)NCc1ccco1 | . | -1 | 2 | 3 | 5.3 | i | 12 | . | 0.9 | .
Cc1nnc(-n2ncc(C#N)c2N)c2nn(-c3cccc(Cl)c3)c(C)c12 | -2 | -3 | . | . | . | . | 8 | -1 | -5.1 | .
COc1ccc(N(CC(=O)N2CCOCC2)S(C)(=O)=O)cc1Cl | -5 | ? | 9 | 11 | -0.1 | i | 1 | -7 | ? | -1.9
O=C(CSc1nc2ccccc2o1)c1ccccc1 | . | -10 | . | . | . | . | -21 | 0 | 2.6 | .
CN(CCOc1ccccc1)C(=O)C1CCC(=O)N(CCc2ccc(Cl)cc2)C1 (stereo not given) | -9 | 16 | -8 | -29 | -3.4 | i | 15 | 6 | -2.8 | 1.5
Cc1ccnc(NS(=O)(=O)c2ccc(NC(=O)CCc3ccccc3)cc2)n1 | -18 | 2 | . | . | . | i | 1 | -1 | 3.5 | 1.7
Cc1ccc(C2CC(=O)C=C(Nc3ccc(Cl)cc3)C2)cc1 (stereo not given) | -22 | 23 | . | . | . | . | -8 | 9 | 1.0 | .
Clc1ccc(-[n+]2c(-c3cccc(Br)c3)[nH]c3nc4ccccc4nc32)cc1 | -3 | 19 | . | . | . | i | 1 | 40 | 10 | 2.1
COc1ccc(CS(=O)(=O)CC(C)(O)c2ccccc2Cl)cc1 (stereo not given) | -2 | 1 | 5 | 8 | 1.9 | i | 1 | -2 | -4.7 | 0.8
COC(=O)C(NC(=O)CCC(=O)N[C@@H](C(=O)OC)c1ccccc1)c1ccccc1 (stereo not given in full) | 4 | -9 | 6 | 0 | -1.6 | i | 0 | . | -1.8 | 0.9
CCn1c(=O)n(CC)c2cc(N3CCCC3)c(NC(=O)c3cc(Cl)ccc3OC)cc21 | 23 | 44 | 3 | 9 | -4.5 | i | -3 | 6 | 1.1 | -2.8
COCCn1c(SC(C(=O)Nc2cc(C)ccc2OC)c2ccccc2)nnc1-c1ccc(Cl)cc1 (stereo not given) | 99* | 20 | . | . | . | . | -9 | 20 | -2.8 | .
COc1cccc(C2CC(C(F)(F)F)n3ncc(C(=O)Nc4c(C)n(C)n(-c5ccccc5)c4=O)c3N2)c1 (stereo not given) | -8 | 20 | . | . | . | . | 3 | -2 | 0.7 | .
COC(=O)c1cccc(NC(=O)CCSc2ccc(Cl)cc2)c1C | 6 | 3 | . | . | . | . | -5 | -5 | 0.1 | .
Cc1ccc(C(=O)Nc2nccs2)s1 | 11 | -8 | 5 | 7 | -2.1 | i | . | -6 | -3.5 | -0.8
CCOc1ccc(C(=O)Nc2cccc(-c3ccc4nncn4n3)c2)cc1 | 0 | -7 | 8 | 10 | -13 | i | -3 | 8 | 0.7 | -1.8
Cc1cc(N/N=C/c2ccccc2F)c2ccccc2n1 | 98* | 0 | 7 | -4 | 1.2 | i | 7 | 0 | 2.3 | -0.2
COCc1nnc(NC(=O)c2cc(C(=O)OC)cc([N+](=O)[O-])c2)s1 | 3 | -11 | . | . | . | i | 5 | -1 | ? | -3.1
CCc1noc(C)c1C(=O)Nc1cc(S(=O)(=O)N2CCOCC2)ccc1OCC(F)(F)F | -7 | -1 | 14 | 17 | 2.3 | i | -6 | 5 | 1.7 | -0.7
CC(Cn1cncn1)NC(=O)c1cc(COc2cccc(C(F)(F)F)c2)on1 (stereo not given) | -3 | -1 | 1 | 0 | 2.8 | i | -10 | 5 | -2.2 | -0.8
(next part)
SMILES | ALR inh | T cruzi inh | Ecoli rRNA inh | Ecoli rRNA inh OD600 | Ecoli rRNA inh RFP | FGF22 binding | Calb FLC | Beta apoptosis | RanGTP-Imp inh | MLL AF4-AF9 inh
O=C(N/N=C/c1cc(Cl)c(O)c(Cl)c1)c1cc2c(ccc3ccccc32)o1 | 34 | 15 | -40 | -62 | 16 | i | 36 | . | 2.9 | 0.0
O=C(CN1CCN(Cc2ccc(F)cc2Cl)C1=O)NCCCN1CCOCC1 | 3 | 11 | 4 | 9 | 1.6 | i | 5 | -1 | 0.2 | -2.6
Cc1ccc(NC(=O)C2C3C=CC4(O3)C2C(=O)N(CCCN2CCCCC2)C4C(=O)NC2CCCCC2)cc1Cl (stereo not given) | 3 | 9 | 5 | 10 | -0.1 | i | -10 | 2 | ? | 2.1
Cc1ccc(NC(=S)NC(NC(=O)N(C)C)C(Cl)(Cl)Cl)cc1 (stereo not given) | -12 | -33 | -9 | -15 | 3.7 | i | -21 | -11 | 0.7 | -1.7
CC(C)C(C)NC(=O)COC(=O)C1CCN(S(=O)(=O)c2ccc3c(c2)OCCO3)CC1 (stereo not given) | -9 | -3 | 1 | 1 | 0.5 | i | -1 | -6 | -1.2 | -34
O=S(=O)(Nc1ncccn1)c1ccc(NC(=S)N2CCN(Cc3ccc(F)cc3Cl)CC2)cc1 | 4 | 4 | 5 | -5 | 3.3 | i | 3 | -9 | -1.2 | -14
CC1=C(C(=O)Nc2ccccc2C)C(c2cccnc2)n2nc(CCCO)nc2N1 (stereo not given) | 5 | -13 | . | . | . | . | -11 | 1 | 2.3 | .
COc1ccc(N2C(=O)C(CC(=O)Nc3ccccc3)N(Cc3ccccn3)C2=S)cc1 (stereo not given) | -4 | 11 | -11 | -3 | 2.2 | + | -8 | -4 | -1.2 | 2.5
CCOCCCNC(=S)N1CCCN(c2nc3cc(C)c(C)cc3cc2C#N)CC1 | 28 | 45 | 7 | -8 | 3.3 | i | -8 | 1 | 58* | -9.7
Cc1nc2scc(-c3ccc(Cl)cc3)c2c(=O)o1 | -5 | -23 | . | . | . | . | 9 | 4 | 1.2 | .
C#CCOCCOCCOCCNc1nc(N2CCN(C(=O)CCCCCCCCCCNC(=O)[C@H](CCCCN)n3cc(CCCC(=O)O)nn3)CC2)nc(N2CCN(C(=O)CCCCCCCCCCNC(=O)[C@H](CCCN=C(N)N)n3cc(C[C@@H](C)CC)nn3)CC2)n1 | -9 | 50 | . | . | . | . | -2 | 11 | 4.8 | .
C=CC[C@H](CC(=O)OC(C)(C)C)C(=O)OC[C@@H]1CCCN1C(=O)[C@H](CC=C)CC(=O)N[C@H](CO)Cc1ccccc1 | -14 | . | -44 | -53 | 26 | i | . | 4 | . | -5.9
O=C(COC(=O)C1CCN(S(=O)(=O)c2ccc3c(c2)OCCO3)CC1)NC1CCCCC1 | 3 | -11 | 2 | -1 | 1.3 | i | -6 | -7 | . | -0.9
CC(C)CNC1=CC(=O)CC(c2ccco2)C1 (stereo not given) | -9 | 3 | . | . | . | . | -1 | -4 | -2.2 | .
Cn1c(C(=O)NCCN2CCN(Cc3ccccc3)CC2)cc2c(=O)n(C)c3ccccc3c21 | -21 | 9 | -14 | -13 | 2.1 | i | -4 | 5 | -0.8 | 3.6
COc1cc(N(C)C)c([N+](=O)[O-])cc1C(=O)NC(C)CNc1ccc([N+](=O)[O-])cc1Cl (stereo not given) | -1 | 32 | . | . | . | . | -2 | . | 0.5 | .
Cc1cccc(NC(=O)CNC(=O)c2ccc3c(c2)OCO3)n1 | 2 | -7 | 4 | 19 | -3.8 | i | 3 | 2 | 3.5 | 11
CNC(=O)c1ccccc1NC(=O)c1ccc(C)c(S(=O)(=O)N2CCCCC2)c1 | 2 | 32 | . | . | . | . | 4 | 0 | 0.7 | .
CCN(CC)c1ccc(NC(=O)Cn2nnc(-c3cccc(OC)c3OC)n2)c(C)c1 | 61 | -3 | . | . | . | . | -11 | . | -1.6 | .
COc1cc(NC(=O)CSc2nc(=O)n(CCCN3CCOCC3)c3c2CCC3)cc(OC)c1 | 99* | 5 | 3 | 4 | 2.6 | i | 18 | -6 | -0.1 | -3.3
CC1CC(NC(=O)Cc2ccc(Br)cc2)CC(C)(C)C1 (stereo not given) | -1 | 1 | . | . | . | . | -7 | . | 3.7 | .
Cc1ccc(S(=O)(=O)N2CC(O)CC2C(=O)OCC(=O)c2ccccc2Cl)cc1C (stereo not given) | . | -10 | . | . | . | . | -5 | -1 | 0.0 | .
CCOc1ccccc1CNC(=O)C1CCN(C(=O)c2sccc2-n2cccc2)CC1 | -23 | 19 | . | . | . | . | 4 | -8 | -2.8 | .
CCCc1[nH]nc2c1C(c1ccsc1)C(C#N)=C(N)O2 (stereo not given) | 16 | -12 | 7 | -3 | 0.7 | . | 12 | -3 | 1.1 | -1.3
CC1=NN(C(N)=S)C(=O)C1N=Nc1ccccc1 (stereo not given) | -4 | 10 | 14 | 8 | 1.8 | i | -4 | 12 | -1.5 | -0.4
The results go on:
SMILES | ALR inh | T cruzi inh | Ecoli rRNA inh | Ecoli rRNA inh OD600 | Ecoli rRNA inh RFP | FGF22 binding | Calb FLC | Beta apoptosis | RanGTP-Imp inh | MLL AF4-AF9 inh
O=C(/C=C/c1cccs1)NC(=S)NNC(=O)Cc1cccs1 | 33 | -5 | . | . | . | . | -6 | 4 | 9.3 | .
O=C(NC1CCC(=O)N(CCSc2ccccc2)CC1)OCc1ccccc1 (stereo not given) | 1 | 21 | -10 | -5 | -7.2 | i | 1 | 3 | -4.5 | -3.2
O=C(NCCCn1ccnc1)c1cc(-c2ccncc2)nc2ccccc12 | -24 | -8 | 8 | 12 | -0.9 | . | -2 | -2 | 6.4 | -0.2
CCOC(=O)N1CCN(Cc2nc(-c3ccccc3)no2)CC1 | -3 | 0 | . | . | . | . | 3 | -4 | -2.2 | .
COc1ccc(N(CC(=O)Nc2ccc(F)c(F)c2)S(=O)(=O)c2c(C)n[nH]c2C)cc1 | 2 | -5 | -26* | -16* | 5.9* | i | 27 | -6 | 1.4 | -0.7
C=CCNC(=O)c1nn2cccnc2c1Cl | -1 | -4 | . | . | . | . | 10 | -3 | 1.2 | .
